INS promoter inh – TRM-6 insulin promoter activity inhibition; TRM-6 cells (human fetal islet line), insulin promoter-eGFP reporter, imaging; reporter expression induced with tamoxifen; inhibition, % at 2 µM; 130,000 compounds, 0.9% hits; AID 1273;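 active means inhibition above the mean plus 3 SD, with well images judged a real hit on visual review, cut at about 60% in these data, passing the limit was not always enough; inconclusive means inhibition over the cutoff but images rejected on review; inactive means inhibition not above the cutoff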
PKD1 kinase inh – PKD1 (human) kinase inhibition. Q15139. PKD1 kinase fluorescence polarization assay. inhibition, %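 (about 10 µM by stock and volumes)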. 200,000 compounds, 0.056% hits;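 active means inhibition of 50% or more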;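 further: controls were vehicle for no effect and a reference inhibitor for full effect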
Target sequence (Q15139 whole entry, looked up): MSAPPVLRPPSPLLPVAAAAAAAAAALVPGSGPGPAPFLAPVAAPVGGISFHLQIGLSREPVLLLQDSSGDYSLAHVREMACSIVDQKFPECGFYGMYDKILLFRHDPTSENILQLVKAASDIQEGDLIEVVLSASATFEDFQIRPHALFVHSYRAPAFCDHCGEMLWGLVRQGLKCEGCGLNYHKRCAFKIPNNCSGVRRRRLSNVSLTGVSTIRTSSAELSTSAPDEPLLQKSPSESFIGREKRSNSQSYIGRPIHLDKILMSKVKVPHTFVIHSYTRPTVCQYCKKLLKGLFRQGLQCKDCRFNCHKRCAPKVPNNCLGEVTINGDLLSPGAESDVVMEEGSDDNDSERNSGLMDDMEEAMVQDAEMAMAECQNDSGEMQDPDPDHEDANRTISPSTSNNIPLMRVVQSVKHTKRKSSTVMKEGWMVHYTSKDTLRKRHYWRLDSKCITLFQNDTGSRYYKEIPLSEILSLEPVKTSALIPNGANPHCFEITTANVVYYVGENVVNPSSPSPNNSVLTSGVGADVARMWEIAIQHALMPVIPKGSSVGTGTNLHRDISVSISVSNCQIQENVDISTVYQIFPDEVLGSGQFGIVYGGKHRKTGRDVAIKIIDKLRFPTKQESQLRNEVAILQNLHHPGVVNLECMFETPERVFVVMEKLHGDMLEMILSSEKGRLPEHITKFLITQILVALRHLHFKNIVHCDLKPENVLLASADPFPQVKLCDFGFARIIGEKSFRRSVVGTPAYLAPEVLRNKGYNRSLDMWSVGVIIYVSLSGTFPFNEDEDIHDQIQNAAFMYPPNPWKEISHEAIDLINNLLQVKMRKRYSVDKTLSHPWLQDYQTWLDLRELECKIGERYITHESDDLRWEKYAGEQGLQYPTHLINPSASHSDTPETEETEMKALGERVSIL
HSV augment – HSV replication enhancement; HSV replication augmentation in cells, fold increase; maximum fold increase; 220,000 compounds, 0.005% hits; AID 1956;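 active means peak rise of 1.5-fold or more in the series; inconclusive means self-fluorescent or not available for retest; tested in PC3 cells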;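 further: first round at 10 µM; read as green reporter fluorescence; hits show the peak of a series up to 25 µM; 1 = signal of infected wells without compound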
GALR2 agonist – agonists of human galanin receptor 2 (GALR2) | O43603 | GALR2-expressing cells, agonist activation read-out | activation, %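 (tested at 5 µM)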 | 140,000 compounds, 0.48% hits | AID 803;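 active means above mean plus 3 SD of all compounds, about 5% in these data, not always enough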;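 further: 0% = vehicle buffer wells and 100% = reference agonist at full effect; tested in CHO reporter cells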
RGS16-Gao HTS – regulators of human RGS16-Galphao interaction; bead-based flow cytometry RGS16-Galphao binding, fluorescence; actives lie on both sides; binding response (% of control), % at 10 µM; 220,000 compounds, 0.38% hits;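 active means below 25% or above 175%, edge rows of some plates excepted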;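 further: Galphao activated by GDP with aluminum fluoride before binding; 100% = wells without compound and 0% = beads without RGS; some results beyond the cut were filed as inactive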
INS promoter inh cell count – also measured in INS promoter inh; calls as there; normalized cell count, %; measured here: cell count, toxicity; reference of the scale not given here;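 cells exposed to compound for 48 h; stained nuclei by imaging scaled within each plate; lower means fewer cells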
HSV augment primary fold – also measured in HSV augment; calls as there; fold increase; compound at 10 µM; measured here: primary screen fold increase 10 uM; tested in PC3 cells;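 GFP signal in the first replicate; 1 = infected wells without compound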
The depositor's hits bear a star.

Results for Cc1ccc(C(=O)Nc2ccc(N3CCN(C(=O)c4ccco4)CC3)cc2)cc1 ?
INS promoter inh: 17; PKD1 kinase inh: -2; HSV augment: inactive; RGS16-Gao HTS: 101; INS promoter inh cell count: 171; HSV augment primary fold: 0.96

What do the screens show for `NC(=O)Cn1nc([N+](=O)[O-])nc1Oc1ccccc1F`?
PKD1 kinase inh: 2; HSV augment: inactive; RGS16-Gao HTS: 95; HSV augment primary fold: 0.81

Results for COc1ccc(-c2nc(C)ncc2N=Nc2ccccc2)cc1 ?
INS promoter inh: 14; PKD1 kinase inh: -4; HSV augment: inactive; GALR2 agonist: -2.6; RGS16-Gao HTS: 96; INS promoter inh cell count: 75; HSV augment primary fold: 0.93

What do the screens show for `Cc1c(Br)cc(C(=O)N2CCCC2)c(C)c1C`?
PKD1 kinase inh: -13; HSV augment: inactive; GALR2 agonist: -1.1; RGS16-Gao HTS: 84; HSV augment primary fold: 0.96

How did CC(=O)NS(=O)(=O)c1ccc(NC(=O)c2ccc3c(c2)C(=O)N(CCC(C)C)C3=O)cc1 do in these assays?
INS promoter inh: 19; PKD1 kinase inh: -6; HSV augment: inactive; GALR2 agonist: -1.0; RGS16-Gao HTS: 104; INS promoter inh cell count: 129; HSV augment primary fold: 1.1

Results for O=C(CCc1nc2ccccc2s1)NC1CCOC1=O (stereo unspecified) ?
HSV augment: inactive; RGS16-Gao HTS: 102; HSV augment primary fold: 0.9

How did Cc1cc(C)cc(NC(=S)NCc2cccn2C)c1 do in these assays?
INS promoter inh: 22; PKD1 kinase inh: 1; HSV augment: inactive; GALR2 agonist: -4.8; RGS16-Gao HTS: 100; INS promoter inh cell count: 83; HSV augment primary fold: 1

What do the screens show for `CS(=O)(=O)c1cccc(C(=O)Oc2ccccc2)c1`?
PKD1 kinase inh: 0; HSV augment: inactive; GALR2 agonist: -0.4; RGS16-Gao HTS: 87; HSV augment primary fold: 1

How did COC(=O)c1ccc(COc2ccccc2[N+](=O)[O-])o1 do in these assays?
INS promoter inh: -32; PKD1 kinase inh: -1; HSV augment: inactive; GALR2 agonist: -0.4; RGS16-Gao HTS: 100; INS promoter inh cell count: 191; HSV augment primary fold: 0.89

What do the screens show for `CCOc1ccc(/C=N/n2c(SC)nnc(C(C)(C)C)c2=O)cc1`?
INS promoter inh: 49; PKD1 kinase inh: -5; HSV augment: inactive; GALR2 agonist: -0.7; RGS16-Gao HTS: 92; INS promoter inh cell count: 136; HSV augment primary fold: 0.86

What do the screens show for `CC(C)(C)NC(=O)CN(C(=O)c1csnn1)c1ccccc1-c1ccccc1`?
PKD1 kinase inh: 0; HSV augment: inactive; RGS16-Gao HTS: 106; HSV augment primary fold: 0.95

Results for O=C(Nc1nonc1-c1ccc(Cl)cc1)c1ccccc1 ?
INS promoter inh: 25; PKD1 kinase inh: -6; HSV augment: inactive; RGS16-Gao HTS: 110; INS promoter inh cell count: 122; HSV augment primary fold: 0.91

What do the screens show for `O=C(c1cccc(Cl)c1Cl)N1CCN(c2ccccn2)CC1`?
INS promoter inh: -1; PKD1 kinase inh: -11; HSV augment: inactive; GALR2 agonist: -0.7; RGS16-Gao HTS: 101; INS promoter inh cell count: 139; HSV augment primary fold: 0.9

What do the screens show for `COCCn1nnnc1CN1CCC(NC(=O)c2ccc(Br)cc2)CC1`?
INS promoter inh: 21; PKD1 kinase inh: 0; HSV augment: inactive; GALR2 agonist: -0.7; RGS16-Gao HTS: 104; INS promoter inh cell count: 128; HSV augment primary fold: 1.1

What do the screens show for `CC(=O)C1=C(O)C(=O)N(CC(=O)O)C1c1ccccc1Cl` (stereo unspecified)?
PKD1 kinase inh: -6; HSV augment: inactive; GALR2 agonist: -0.7; RGS16-Gao HTS: 82; HSV augment primary fold: 1.1

The closing two entries of the part before lead into the next:
What do the screens show for `COCCn1nnnc1CN1CCC(NC(=O)c2ccc(Br)cc2)CC1`?
INS promoter inh: 21; PKD1 kinase inh: 0; HSV augment: inactive; GALR2 agonist: -0.7; RGS16-Gao HTS: 104; INS promoter inh cell count: 128; HSV augment primary fold: 1.1

What do the screens show for `CC(=O)C1=C(O)C(=O)N(CC(=O)O)C1c1ccccc1Cl` (stereo unspecified)?
PKD1 kinase inh: -6; HSV augment: inactive; GALR2 agonist: -0.7; RGS16-Gao HTS: 82; HSV augment primary fold: 1.1

What do the screens show for `Cc1nc(N2CCC(C)CC2)c(C#N)c(C)c1[N+](=O)[O-]`?
INS promoter inh: -8; PKD1 kinase inh: -4; HSV augment: inactive; RGS16-Gao HTS: 101; INS promoter inh cell count: 102; HSV augment primary fold: 1

Results for COc1ccccc1-c1cc(C(=O)N/N=C\c2cnn(C)c2C)c2ccccc2n1 ?
INS promoter inh: 14; PKD1 kinase inh: -3; HSV augment: inactive; GALR2 agonist: -1.1; RGS16-Gao HTS: 104; INS promoter inh cell count: 162; HSV augment primary fold: 0.95

How did O=C(CNc1cc(S(=O)(=O)N2CCOCC2)ccc1N1CCCC1)N1CCc2ccccc21 do in these assays?
INS promoter inh: 7; PKD1 kinase inh: 5; HSV augment: inactive; RGS16-Gao HTS: 102; INS promoter inh cell count: 119; HSV augment primary fold: 0.85

Results for CCN(C(=O)CSc1nc2c(cnn2-c2ccccc2)c(=O)[nH]1)C1CCS(=O)(=O)C1 (stereo unspecified) ?
INS promoter inh: 18; PKD1 kinase inh: -9; HSV augment: inactive; GALR2 agonist: -0.5; RGS16-Gao HTS: 107; INS promoter inh cell count: 102; HSV augment primary fold: 1.1

How did O=C1CC(c2cccc(Br)c2)c2cc3c(cc2N1)CCC3 (stereo unspecified) do in these assays?
PKD1 kinase inh: -1; GALR2 agonist: -0.9; RGS16-Gao HTS: 98

How did COc1ccc2[nH]c(C)c(C(=O)CN3CC(C)OC(C)C3)c2c1 (stereo unspecified) do in these assays?
INS promoter inh: 0; PKD1 kinase inh: -3; GALR2 agonist: 1.2; RGS16-Gao HTS: 103; INS promoter inh cell count: 71

What do the screens show for `CCCN1CCN(CCCNC(=S)Nc2ccc(OC)cc2)CC1`?
INS promoter inh: 33; PKD1 kinase inh: 2; HSV augment: inactive; GALR2 agonist: -1.0; RGS16-Gao HTS: 82; INS promoter inh cell count: 115; HSV augment primary fold: 0.98

What do the screens show for `O=Cc1c(Cl)nc2ccccn12`?
PKD1 kinase inh: -5; HSV augment: inactive; RGS16-Gao HTS: 102; HSV augment primary fold: 1.1

How did CCCCCCN=C1CC(C)(C)CC(=O)/C1=C(/O)CCC do in these assays?
HSV augment: inactive; RGS16-Gao HTS: 97; HSV augment primary fold: 1.1

Results for Cn1nc(C(F)(F)F)c(CNC(=O)C(C)(C)CCl)c1N1CCOCC1 ?
PKD1 kinase inh: -3; HSV augment: inactive; RGS16-Gao HTS: 96; HSV augment primary fold: 1.1

Results for CCCCOC(C)n1cc(F)c(=O)[nH]c1=O (stereo unspecified) ?
INS promoter inh: -4; PKD1 kinase inh: -5; HSV augment: inactive; GALR2 agonist: -0.4; RGS16-Gao HTS: 99; INS promoter inh cell count: 114; HSV augment primary fold: 0.9

Results for CCCc1cc(=O)[nH]c(SCC(=O)N2CCN(S(=O)(=O)c3ccccc3)CC2)n1 ?
INS promoter inh: 42; PKD1 kinase inh: -1; HSV augment: inactive; GALR2 agonist: 0.1; RGS16-Gao HTS: 112; INS promoter inh cell count: 109; HSV augment primary fold: 0.96

Results for CCN1CCN(C(c2cccs2)C(C)NC(=O)c2cccnc2)CC1 (stereo unspecified) ?
INS promoter inh: -21; PKD1 kinase inh: -4; HSV augment: inactive; GALR2 agonist: -3.0; RGS16-Gao HTS: 101; INS promoter inh cell count: 140; HSV augment primary fold: 1.2

Results for COc1cc(NC(=S)NC(=O)c2ccc(C)cc2C)ccc1NC(=O)c1cccs1 ?
INS promoter inh: 14; PKD1 kinase inh: -6; HSV augment: inconclusive; GALR2 agonist: -0.1; RGS16-Gao HTS: 106; INS promoter inh cell count: 123

What do the screens show for `Cn1c(=O)c2c(nc(CN3CCOCC3)n2CCc2ccccc2)n(C)c1=O`?
PKD1 kinase inh: 2; HSV augment: inactive; GALR2 agonist: -1.6; RGS16-Gao HTS: 102; HSV augment primary fold: 0.93

How did COc1ccc(CNc2ccc(-c3ccccc3OC)nn2)cc1 do in these assays?
INS promoter inh: 8; PKD1 kinase inh: -4; HSV augment: inactive; GALR2 agonist: -2.8; RGS16-Gao HTS: 115; INS promoter inh cell count: 83; HSV augment primary fold: 1

Results for CC(NC(=O)CCCn1cc([N+](=O)[O-])cn1)c1ccccc1 (stereo unspecified) ?
INS promoter inh: -21; PKD1 kinase inh: -2; HSV augment: inactive; RGS16-Gao HTS: 100; INS promoter inh cell count: 68; HSV augment primary fold: 0.96

What do the screens show for `CCOc1cc(/C=C/c2nc3ccccc3s2)ccc1OCC(=O)N1CCOCC1`?
INS promoter inh: 36; PKD1 kinase inh: -3; HSV augment: inactive; GALR2 agonist: 0.2; RGS16-Gao HTS: 90; INS promoter inh cell count: 105; HSV augment primary fold: 0.69

What do the screens show for `CCOC(=O)C1(C)NC(c2ccc(OC)c(OC)c2)C2C(=O)N(CC)C(=O)C21` (stereo unspecified)?
INS promoter inh: 28; PKD1 kinase inh: -1; HSV augment: inactive; GALR2 agonist: -0.5; RGS16-Gao HTS: 99; INS promoter inh cell count: 96; HSV augment primary fold: 0.74

How did Nc1c(Cl)ncnc1N/N=C/c1ccc(O)cc1 do in these assays?
HSV augment: inactive; RGS16-Gao HTS: 99; HSV augment primary fold: 0.9

What do the screens show for `CCS(=O)(=O)CCSC1OC(COC(C)=O)C(OC(C)=O)C(OC(C)=O)C1OC(C)=O` (stereo unspecified)?
PKD1 kinase inh: -8; HSV augment: inactive; RGS16-Gao HTS: 78; HSV augment primary fold: 0.95

Results for CC1=C(C(=O)Nc2ccccc2)C(c2ccco2)n2ncnc2N1 (stereo unspecified) ?
INS promoter inh: -4; PKD1 kinase inh: 4; HSV augment: inactive; GALR2 agonist: -2.2; RGS16-Gao HTS: 101; INS promoter inh cell count: 51; HSV augment primary fold: 0.69

Results for CC(C)c1ccc(NC(=O)Cn2cccc2C2=NC(c3ccccc3)CO2)cc1 (stereo unspecified) ?
INS promoter inh: -58; PKD1 kinase inh: 2; HSV augment: inactive; GALR2 agonist: -2.6; RGS16-Gao HTS: 83; INS promoter inh cell count: 58; HSV augment primary fold: 1.1

What do the screens show for `COC(=O)CSc1nc(-c2ccccc2)c2c(c1C#N)CCCC2`?
INS promoter inh: 22; PKD1 kinase inh: -8; HSV augment: inactive; GALR2 agonist: -3.8; RGS16-Gao HTS: 105; INS promoter inh cell count: 230; HSV augment primary fold: 0.95

How did Cc1ccc(/C=C/C(=O)NCc2ccc(S(N)(=O)=O)cc2)o1 do in these assays?
INS promoter inh: 17; PKD1 kinase inh: -3; HSV augment: inactive; RGS16-Gao HTS: 77; INS promoter inh cell count: 173; HSV augment primary fold: 1.1

Results for COc1ccc(N/C(C)=C/C(=S)Nc2ccccc2)cc1 ?
PKD1 kinase inh: 11; HSV augment: inactive; GALR2 agonist: -1.0; RGS16-Gao HTS: 77; HSV augment primary fold: 1

Results for CCCCCN(C(=O)COC(=O)c1ccc(Br)o1)c1c(N)n(CCCC)c(=O)[nH]c1=O ?
INS promoter inh: -33; PKD1 kinase inh: 0; GALR2 agonist: -3.0; RGS16-Gao HTS: 101; INS promoter inh cell count: 139

How did Cc1ccc2nc(N3CC(=O)Nc4ccccc43)nc(-c3ccccc3)c2c1 do in these assays?
PKD1 kinase inh: -7; HSV augment: inactive; GALR2 agonist: 0.3; RGS16-Gao HTS: 126; HSV augment primary fold: 0.99

Results for CCCn1c(SCC(=O)Nc2ccc(OC)cc2[N+](=O)[O-])n[nH]c1=O ?
INS promoter inh: -23; PKD1 kinase inh: -1; HSV augment: inactive; RGS16-Gao HTS: 102; INS promoter inh cell count: 93; HSV augment primary fold: 0.99

How did Cc1[nH]n(-c2ccccc2)c(=O)c1/C=N/N1CCOCC1 do in these assays?
HSV augment: inactive; RGS16-Gao HTS: 102; HSV augment primary fold: 1.2

Results for CCOc1cc(-c2nn3cnnc3s2)cc(OCC)c1OCC ?
PKD1 kinase inh: 3; HSV augment: inactive; GALR2 agonist: 0.2; RGS16-Gao HTS: 92; HSV augment primary fold: 0.9

How did CCOC(=O)c1c(NC(=O)CSc2nnc(-c3ccco3)o2)sc(C(C)=O)c1C do in these assays?
INS promoter inh: 44; PKD1 kinase inh: -2; HSV augment: inactive; GALR2 agonist: 2.4; RGS16-Gao HTS: 101; INS promoter inh cell count: 71; HSV augment primary fold: 0.94

How did CC(=O)/C(=N/Nc1cccc(Cl)c1)Sc1nnc(C(O)c2ccccc2)n1-c1ccccc1 (stereo unspecified) do in these assays?
PKD1 kinase inh: 15; HSV augment: inactive; GALR2 agonist: -1.0; RGS16-Gao HTS: 65; HSV augment primary fold: 1

Compounds as they come. About 1.1% of those tested had a hit in this group.
